NPYLR7 ag – mosquito NPYLR7 agonism; actives 0.15% (n = 270,000); AID 1259423; activation, % at 10 µM; HEK293T NPYLR7/Galpha15, GCaMP6s calcium fluorescence; in the data active = activation above about 40%;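 note: 0% = vehicle and 100% = reference agonist at the receptor; some compounds past the cut are filed as inactive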
NPYLR7 ag max-min – recorded beside NPYLR7 ag, whose call it bears; activation, %; measured here: Max-Min RFU normalised activation; some inactives read as strong as hits;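 span of the calcium signal over five minutes; 0% = vehicle and 100% = native peptide agonist; compound fluorescence can raise it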
Active calls of the source: *.

Below each compound – NPYLR7 ag	NPYLR7 ag max-min
- CC(C)c1noc(C2CCCN2C(=O)c2coc3c2C(=O)CCC3)n1 (centres undefined)
    6.9	5.0
- Cc1ccc(C)c(NC(=O)CSc2nc(N)c(NC(=O)c3ccco3)c(=O)[nH]2)c1
    3.5	-1.2
- O=C1OC(c2cc(Cl)ccc2Cl)=N/C1=C\c1cccnc1
    3.5	1.5
- Cc1ccc(-c2csc(NC(=O)c3c(C)noc3C)n2)s1
    11.8	11.1
- Cc1ccc(C)c(-n2cc(CNCCN3CCN(C)CC3)c(-c3ccccc3)n2)c1
    -6.4	-9.7
- CCOC(=O)N1CCN(CC(=O)N2N=C(c3cc(C)ccc3C)CC2c2ccccc2F)CC1 (centres undefined)
    17.6	16.5
- Cc1cc(=O)[nH]c(SCCOCCOc2cccc(C(F)(F)F)c2)n1
    0.4	-3.6
- Cc1ccc(S(=O)(=O)N(CC(=O)c2ccccc2)C(=O)N2CCN(C)CC2)cc1
    1.5	1.4
- O=C(COc1ccccc1C(F)(F)F)NCc1ccc(OC(F)F)cc1
    6.6	5.3
- CCOc1ccccc1C(=O)Nc1c(C)nc2sccn2c1=O
    12.4	2.1
- CCC(C)N(C(=O)CSc1ccc2ccccc2n1)C1CCS(=O)(=O)C1 (centres undefined)
    0.2	16.1
- CC12CCC(CC1=NNS(=O)(=O)c1cc(Br)ccc1Br)C2(C)C (centres undefined)
    -8.3	-6.7
- CNc1cc(-c2ccccc2CO)ncn1
    1.6	0.3
- CCC(C(=O)Nc1ccc(-c2onc3c2CCc2ccccc2-3)cc1)c1ccccc1 (centres undefined)
    3.5	3.2
- c1cncc(COC2CCN(Cc3cnc(C4CCCCC4)nc3)CC2)c1
    15.7	10.1
- COCCCn1c(O)c(C=Nc2ccc(O)cc2)c(C)c(C#N)c1=O
    5.3	1.7
- C=CCN(Cc1ccccc1C)C(=O)CCNS(C)(=O)=O
    -1.2	-4.9
- CN(Cc1ccccn1)C(=O)Nc1ccccc1F
    0.3	0.7
- COc1ccc(C2NCCc3cc(OC)c(OC)cc32)cc1 (centres undefined)
    -12.2	-15.4
- CCOc1c(C)cnc2c1c(=O)n(CC(=O)N(C(C)C)C(C)C)c(=O)n2C
    4.1	3.0
- COCCN(Cc1ccccn1)C(=O)/C=C/C1CCCCC1
    3.5	1.9
- Cc1nc(SCc2ccc(C(=O)NCc3ccccn3)cc2)nc(N2CCOCC2)c1C
    -3.1	6.6
- CNC(=O)c1n[nH]c2c1CNCC2
    -2.6	48.6
- Fc1cccc(CCc2n[nH]c(CCc3ccccc3)n2)c1
    22.1	17.0
- CN1CCN(CC(=O)N2N=C(c3ccc(Br)cc3)CC2c2nc3ccccc3[nH]2)CC1 (centres undefined)
    8.0	5.7
- CN(C)CC(C)(C)NC(=O)c1csc2nc(-c3cccc(F)c3)cn12
    2.8	-1.5
- Cc1noc(-c2ccc(C(C)(C)C)cc2)c1C(=O)NCCc1cccs1
    5.3	-0.3
- CCOc1cc(C2NC(=O)N(Cc3ccccc3)C(C)=C2C(=O)OCCOC)ccc1OC (centres undefined)
    24.0	14.3
- COc1cccc(NC(=O)N2CCCN(C(=O)CN3CCc4sccc4C3c3cccc(F)c3)CC2)c1 (centres undefined)
    11.5	2.2
- CCN(CC)S(=O)(=O)c1ccc2c(c1)nc(SCCCC#N)n2Cc1ccco1
    1.7	-3.1
- CCCN(CC1CC1)C(=O)c1ccc(N2C(=O)c3ccccc3C2=O)cc1
    1.7	17.9
- CCCCCCC(=O)Nc1c(-c2ccccc2C)nc2cc(C)ccn12
    -3.2	3.4
- CSc1ncc(CN2CCCC(CO)(CCOc3ccccc3)C2)cn1 (centres undefined)
    3.5	1.9
- C=CCn1c(=NC(=O)c2ccc(S(C)(=O)=O)cc2)sc2cccc(F)c21
    5.9	0.8
- Cc1cc(N)c(O)c(Br)c1
    4.6	3.7
- Cc1ccc(CNC(=O)c2cc(N3CCOCC3)nc3ccccc23)o1
    27.9	36.1
- Cc1cccc2c(CC(=O)N3CCCC3CS(N)(=O)=O)c[nH]c12 (centres undefined)
    -1.2	-2.1
- COc1cccc(C(CN2CCN(C(=O)CCc3ccccc3)CC2)OCc2ccc(C#N)cc2)c1 (centres undefined)
    2.4	-0.5
- CCN(Cc1cccs1)C(=O)NCc1ccc(Cn2cncn2)cc1
    0.0	-1.0
- O=C(Nc1cccc(-c2cccc(Cl)c2)c1)C1CCN(C(=O)c2ccoc2)CC1
    6.1	3.1
- CNC(=O)NC(=O)CNc1ccc(Cl)cc1F
    18.4	9.1
- Cc1nc(SCC(=O)NC(C)(C)C)c(C#N)c(C)c1C
    2.8	8.8
- O=C(c1ccc2nsnc2c1)N1CCN(C2=NN=C(c3cccs3)CS2)CC1
    1.0	-0.8
- CCc1nc(SCC(=O)N2CCC(c3cc(OC)ccc3OC)C2)n[nH]1 (centres undefined)
    2.1	1.6
- CC(C)C(C(=O)O)N1C(=O)/C(=C/c2cccc(O)c2)SC1=S (centres undefined)
    -5.6	-10.9
- CCC(NC(=O)CN(C)Cc1ccc2c(c1)OCCO2)c1ccc(Br)cc1 (centres undefined)
    2.0	1.1
- CC(C)CCNC(=O)C1CCCN(S(=O)(=O)c2ccc(F)cc2)C1 (centres undefined)
    1.2	5.0
- O=C(CSc1nccn1-c1cccc(Cl)c1)NC(=O)NC1CC1
    -6.3	-7.8
- CC(NC(=O)c1ccccc1OCc1ccc(Cl)cc1)C1CC2CCC1C2 (centres undefined)
    2.3	1.3
- O=C(CN1CCc2sccc2C1c1cccc(F)c1)N1CCN(C(=O)c2ccccc2F)CC1 (centres undefined)
    4.0	-6.3
- CCC(C)C(C)NC(=O)N1CCN(C(C)c2cccnc2)CC1 (centres undefined)
    7.3	9.1
- CCCC(O)CN(Cc1ccccc1)Cc1nc2sc(C)c(C)c2c(=O)[nH]1 (centres undefined)
    13.6	17.9
- Cc1ccc(C)c(OCc2cc(C(=O)NCC3CCS(=O)(=O)C3)no2)c1 (centres undefined)
    11.9	8.4
- CC(C)c1nc(C(C)Nc2ncc(S(N)(=O)=O)s2)cs1 (centres undefined)
    9.0	5.5
- COC(=O)c1ccc(OCC(O)Cn2c[n+](C)c3cc(C)c(C)cc32)cc1 (centres undefined)
    3.6	3.5
- CCOC(=O)CN1CCN(c2cc(Cl)ccc2OC)C(=O)C1C (centres undefined)
    -2.9	-1.2
- CC1Cc2ccccc2N1CC(=O)NC(=O)NC1CC1 (centres undefined)
    3.2	0.3
- Cc1cccc(C(=O)N2C(C(=O)O)COC23CCN(C(=O)c2cccs2)CC3)c1 (centres undefined)
    -13.0	-13.9
- COc1ccc2cc(C3CN(CCC(=O)O)CCO3)ccc2c1 (centres undefined)
    -7.9	-11.3
- CSc1cc2c(cc1NCC(=O)NC(C)c1ccco1)OCCO2 (centres undefined)
    0.7	-0.3

Single records, from the list above.
CSc1cc2c(cc1NCC(=O)NC(C)c1ccco1)OCCO2 (centres undefined) is listed as NPYLR7 ag: 0.7; NPYLR7 ag max-min: -0.3
CCCN(CC1CC1)C(=O)c1ccc(N2C(=O)c3ccccc3C2=O)cc1 is listed as NPYLR7 ag: 1.7; NPYLR7 ag max-min: 17.9
CC(C)CCNC(=O)C1CCCN(S(=O)(=O)c2ccc(F)cc2)C1 (centres undefined) is listed as NPYLR7 ag: 1.2; NPYLR7 ag max-min: 5.0

5 entries already listed, ordered by count of non-hydrogen atoms, lowest first.
Below each compound – NPYLR7 ag	NPYLR7 ag max-min
- Cc1cc(N)c(O)c(Br)c1
    4.6	3.7
- Cc1nc(SCC(=O)NC(C)(C)C)c(C#N)c(C)c1C
    2.8	8.8
- O=C(CSc1nccn1-c1cccc(Cl)c1)NC(=O)NC1CC1
    -6.3	-7.8
- Cc1ccc(CNC(=O)c2cc(N3CCOCC3)nc3ccccc23)o1
    27.9	36.1
- COc1cccc(C(CN2CCN(C(=O)CCc3ccccc3)CC2)OCc2ccc(C#N)cc2)c1 (centres undefined)
    2.4	-0.5

Continued:
Below each compound – NPYLR7 ag	NPYLR7 ag max-min
- COc1cccc(C(=O)N(CN2CCCC2=O)c2cc(C)on2)c1
    -5.0	-3.2
- Cc1nn(CCC(=O)N2CC[C@@H]3CC[C@H](C2)N3C)c(C)c1C
    0.3	-0.2
- CCCCn1c(N)c(N(CC)C(=O)c2sc(C)nc2C)c(=O)[nH]c1=O
    8.0	11.9
- CCOC(=O)C1=C(C)NC2=C(C(=O)CCC2)C1c1ccccc1I (centres undefined)
    0.8	-3.0
- COc1cc(NC(=O)CN2CCC(C(=O)N3CCCCCC3)CC2)cc(OC)c1OC
    -3.0	-1.0
- COc1cccc(CSc2nnc(C(C)NC(=O)c3ccc4c(c3)OCO4)n2-c2cc(Cl)ccc2C)c1 (centres undefined)
    17.1	22.6
- O=S1(=O)CCC(=NNc2cc(C(F)(F)F)ccc2Cl)c2cc(F)ccc21
    1.7	-1.8
- CN1CCN(C(c2cccs2)C2Sc3nc(-c4ccco4)nn3C2=O)CC1 (centres undefined)
    0.3	1.5
- COc1ccc(NC(=O)c2cn(-c3ncccc3-c3nc(C(C)C)no3)cn2)cc1
    -6.4	-8.0
- Cc1cc(C)c2sc(N(CCCN3CCOCC3)C(=O)COc3ccccc3)nc2c1
    -2.8	-6.8
- CCN1CCN(c2c(CN(C(=O)C3CCCCC3)C3CC3)c(C)nn2-c2cccc(F)c2)CC1
    -3.2	-4.7
- CC1(C)C2(C(=O)N3CCN(c4nccc(-c5cccc(C(F)(F)F)c5)n4)CC3)CC[C@@]1(C)C(=O)O2
    18.5	26.7
- CCOC(=O)CNc1c(-c2ccc(O)c(OC)c2)nc2ccc(Br)cn12
    10.5	10.8
- CC(C)c1ccc2nc(-c3ccnc(S(C)(=O)=O)c3)[nH]c(=O)c2c1
    3.6	2.3
- C1=CC[C@H]2CN(Cc3cc4n(n3)CCNC4)C[C@H]2C1
    10.4	11.3
- CCOc1ccc(-c2ccc(=O)n(CCNS(=O)(=O)c3ccc(C)c(C)c3)n2)cc1
    2.3	2.7
- Cn1c(=O)n(C)c2cc(CNC(=O)c3ccc4oc(Cc5ccccc5)nc4c3)ccc21
    -0.7	-6.7
- CC1CSc2ccccc2N1CC(=O)N1CCC(C(=O)Nc2ccccc2)CC1 (centres undefined)
    8.7	-4.9
- CCN(CC)C(=O)c1cc(S(=O)(=O)N(C)OC)ccc1Br
    9.2	4.2
- COC(=O)CCCC(=O)Nc1cccc(-c2cccc(-c3ccc(F)cc3)n2)c1
    7.5	17.2
- CN1CCN(C(=O)c2cc(F)ccc2Br)C(c2ccccc2)C1 (centres undefined)
    -5.4	-4.0
- Cc1cccc(C(=O)Nc2sc3c(c2C(=O)Nc2ccc(Cl)cc2)CCC(C)C3)c1 (centres undefined)
    1.7	5.9
- CCOC(=O)c1c2c(n3ccc(-c4ccncc4)cc13)C(=O)c1ccccc1C2=O
    -10.2	-13.5
- Cc1ccc(NC(=O)CC(=O)N2CCCCC2CCO)c(C)c1 (centres undefined)
    -13.1	-18.0
- CCCCc1ccc(S(=O)(=O)c2cnc(SCC(=O)Nc3cccc(Cl)c3)[nH]c2=O)cc1
    -1.8	-5.9
- Cc1ccc(-c2nc(C(=O)Nc3ccn(CCN(C)C)n3)cs2)cc1
    -4.7	-5.5
- Cc1nc(-c2ccc(CNC(=O)C3CC3C)cc2)cs1 (centres undefined)
    1.2	1.0
- CC(C)c1ccccc1OCC(=O)NNC(=O)c1ccc(Br)s1
    6.4	10.4
- Cc1ccccc1CC(=O)OC1(C2CC2)CC1
    -2.6	-10.6
- CCn1nc(C(C)C)cc1C(=O)N1CC[C@@H](c2sccc2C)[C@H](O)C1
    -5.6	-3.7
- CCC(=O)NNc1nc2c(c(=O)n1C1CCOC(C)(C)C1)C1(CCCCC1)Cc1ccccc1-2 (centres undefined)
    2.0	-2.0
- Cc1ccc(-n2ncc3c(=O)n(NC(=O)c4ccc(C(C)(C)C)cc4)cnc32)cc1C
    3.6	-1.3
- CCOC(=O)c1c(C)[nH]c(C(=O)N(C)Cc2cc(C)ccc2OC)c1C
    2.6	2.5
- O=C(c1ccco1)N1CCN(c2nc(Cc3ccccc3)nc3sc4c(c23)CCCC4)CC1
    -10.5	-8.2
- O=C(CN1CCC(O)CC1)NC1c2ccccc2-c2ccccc21
    11.1	8.4
- Cc1ccccc1OCC(=O)NCC1CCN(Cc2ccncc2)CC1
    -7.9	-11.0
- CCC(=O)NC1(c2ccc(OCc3ccccc3)cc2)CCOCC1
    1.8	-0.9
- O=C(Cn1cccn1)NC1CC(=O)N(Cc2ccc(F)cc2)C1 (centres undefined)
    1.6	-1.3
- CCc1ccc(NC(=O)c2cc3nc(-c4cccs4)cc(C(F)(F)F)n3n2)cc1
    -11.2	-17.8
- Fc1ccc(F)c(-c2csc(Nc3ccc4c(c3)OCCO4)n2)c1
    0.7	18.8
- COC(=O)CCCCCCCCC(=O)N[C@H](Cc1ccccc1)C(=O)N1CCC(C(=O)Nc2ccc(OC)cc2)CC1
    7.1	20.5
- Cc1ccc(S(=O)(=O)N2CCN(C(=O)c3oc4ccc(F)cc4c3C)CC2)cc1
    7.4	11.3
- CC(C)C1C=CCN1C(=O)C1(Oc2ccc(Cl)cc2)CCNCC1 (centres undefined)
    1.4	1.2
- C=CCOc1cccc(C(=O)N(C)C2CCCN(Cc3ccccc3F)C2)c1 (centres undefined)
    15.1	8.8
- O=C1c2ccccc2-c2nc3ccccc3nc21
    2.3	3.0
- C=CCc1cc(CN2CCC3(CC2)CN(C)CCN3C)ccc1O
    -15.8	-15.7
- Cc1cc(NC(=O)CN(C)Cc2ccc(Br)s2)no1
    -1.5	3.8
- CC(=O)OC(C)(C)C(=O)N1CCN(c2nc3nccc(-c4ccc(N5CCOCC5)cc4)n3n2)CC1
    5.5	0.0
- CC(=O)c1ccc(CN2CCCCC2CN2CCOCC2)cc1 (centres undefined)
    2.0	-0.9

Screening results: PubChem BioAssay, Fisher Drug Discovery Resource Center

The list is partial, so the mix of outcomes need not match the whole.
